Mtb H37Rv: Mycobacterium tuberculosis H37Rv growth inhibition, cell based, confirmatory dose response (AID 1949); inhibition, % at 10 µg/mL, or IC50 in µg/mL where a hit was titrated; 100,000 compounds, 1.6% hits; most inactive calls were filed without a number and no value below 0 was filed;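 active = confirmed in a dose series; inconclusive = about 50% or more but not retested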;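 note: bacteria grown 7 days with compound before Alamar blue readout; 0% = untreated bacteria and 100% = reference antibiotic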
* hit, by the source's call; i = inactive; ? = inconclusive. This is a subset; rates above refer to the full screens.

SMILES	Mtb H37Rv
C=CCn1c(SCC(=O)N(CCC)CCC)nc2ccc(I)cc2c1=O	i
NC(=O)CN(CC(N)=O)S(=O)(=O)c1ccc2ccccc2c1	i
CCOC(=O)c1c(C)sc2c1N(C(=O)CN1CCOCC1)c1cc(Cl)ccc1S2	i
Cc1ccc(S(=O)(=O)c2nc(Nc3nccs3)sc2Cl)cc1	i
CCc1cccc2c(C#N)cn(CC(=O)NCCc3ccccc3)c12	i
COC(=O)COC(=O)CC(CC(N)=O)c1ccccc1 (stereo unspecified)	0.3%
C=COCCNC(=S)N1CCCCC1c1cccnc1 (stereo unspecified)	i
CN(c1ccccc1C(=O)Nc1cccc(Cl)c1Cl)S(C)(=O)=O	i
O=C(COc1ccc(S(=O)(=O)NCc2ccccc2)cc1)NCc1ccc(Cl)cc1	i
COC(=O)c1cc(C)sc1NC(=S)NNC(=O)Cc1ccc(-c2ccccc2)cc1	i
CCn1c(CNC(=O)c2ccccc2C)nnc1SCC(=O)NCCc1ccccc1	i
CCc1ccc2nc(N3C(=O)C(O)=C(C(=O)c4ccco4)C3c3cccs3)sc2c1 (stereo unspecified)	i
N#Cc1ccc(NC(=O)c2ncn[nH]2)cc1	i
CCc1cc(C(=O)O)c(NC(=O)c2cc(OC)c(OC)c(OC)c2)s1	i
CCc1ccc(Oc2coc3cc(OC(=O)CCCN4C(=O)c5ccccc5C4=O)ccc3c2=O)cc1	i
COc1ccc(-c2cc(C(=O)NCCN3CCOCC3)c3ccccc3n2)c(OC)c1	3.8%
COc1c(Cl)ccc(Cl)c1C(=O)Nc1sc2c(c1C(N)=O)CCCC2	5.7%
Cc1cccc(C(=O)Nc2nnc(SCC(=O)N3CCCC3)s2)c1	i
Cn1c(SCC(=O)Nc2ccccc2F)nnc1-c1cccc(NC(=O)c2ccccc2Cl)c1	i
CC1CCc2cc(F)ccc2N1C(=O)c1ccc(Cl)cc1Cl (stereo unspecified)	i
COC(=O)Nc1ccccc1Oc1ccccc1	i
COc1ccc(NC(=O)COc2ccc(C=O)cc2Cl)cc1	i
OCc1cn(-c2ccccc2)nc1-c1cccc(Cl)c1	9.6%
O=C(CC1Nc2ccccc2NC1=O)Nc1ccc(F)c(Cl)c1 (stereo unspecified)	4.4%
Cc1ccc(NS(=O)(=O)c2ccc(NC(=O)c3ccccc3[N+](=O)[O-])cc2)cc1C	i
CCOc1ccc(N(CC(=O)N2CCCCC2)S(=O)(=O)c2ccc(C)cc2)cc1	i
O=C(NC(=S)N1CCN(c2nc(-c3ccccc3)cs2)CC1)c1cncc(Br)c1	?
O=C(c1csc2c1CCCC2)N1CCc2ccccc2C1	5.7%
O=C(Nc1ccc(Cl)cc1)c1cc(Br)cs1	2.3%
CC(C)CN(CC(C)C)S(=O)(=O)c1ccc(C(=O)Nc2ccc(F)cc2)cc1	i
Cc1ccc(Cl)cc1NC(=O)c1ccccc1-c1ccccc1	?
Cc1noc(C)c1C(=O)NCCC1=CCCCC1	i
COC(=O)c1sccc1NC(=O)COc1ccccc1Cl	i
COc1ccccc1N1CCN(C(=O)c2cccc(C#Cc3ccccc3)c2)CC1	5.5%
COc1cc(C)c(C)cc1S(=O)(=O)Nc1ccccc1O	i
COc1ccc(S(=O)(=O)Nc2ccc3c(c2)n(C)c(=O)n3C)cc1	i
CC(C)(C)NC(=O)CSC1=C(C#N)C(c2ccc(Cl)cc2)CC(=O)N1 (stereo unspecified)	0.2%
O=S(=O)(Nc1nc2ccccc2s1)c1ccc(F)cc1	i
c1ccc(N2CCN(C3CCN(Cc4ccco4)CC3)CC2)cc1	i
Cc1cccc2c1N(Cc1ccccc1Cl)C(=O)C2=O	i
Cc1ccc(-c2csc3ncnc(Nc4ccc(N5CCOCC5)cc4)c23)cc1	7.3%
Cc1ccc2occ(CC(=O)N(Cc3ccc(C(C)C)cc3)C3CCS(=O)(=O)C3)c2c1 (stereo unspecified)	i
CCN(CC)c1ccc(NC(=S)Nc2ccc(OC)cc2OC)cc1	i
Cc1ccc(Nc2nc(N)nc(CSc3nccn3C)n2)cc1	i
CC1CN(CCOc2ccccc2[N+](=O)[O-])CC(C)O1 (stereo unspecified)	i
Cc1ccc(NS(=O)(=O)c2ccc(NC(=O)c3cccc(NC(=O)C(C)C)c3)cc2)cc1	2.5%
CC1CCN(C(=O)CSc2ncnc3sc4c(c23)CCC(C)C4)CC1 (stereo unspecified)	i
CN(C)S(=O)(=O)c1ccc2nc(NS(=O)(=O)c3ccc(Br)cc3)sc2c1	i
Cc1cccc(NC(=O)CN(c2ccc(F)cc2)S(C)(=O)=O)c1C	i
CC(Oc1ccccc1)c1nnc(SCC(=O)Nc2cccc(C(F)(F)F)c2)n1C (stereo unspecified)	i
Fc1ccccc1COc1ccc(C(=S)N2CCCC2)cc1	i
CC(C)c1cccc(C(C)C)c1NC(=O)c1ccc(OCC(=O)Nc2cccc(C(F)(F)F)c2)cc1	i
COC(=O)C1=C(C)NC(=O)NC1c1cc(Br)ccc1OC(C)C (stereo unspecified)	i
Cc1cc(C)nc(SC2CCCCC2O)n1 (stereo unspecified)	0.7%
O=c1[nH]c(/C=C\c2ccc(OCc3ccccc3)c(Br)c2)c([N+](=O)[O-])c(=O)[nH]1	i
COCc1nc2ccccc2n1CCC1CCCCC1	i
O=S(=O)(/N=C(/NS(=O)(=O)c1cccc2ccccc12)c1ccccc1)c1ccccc1	i
COCc1nnc(NC(=O)CC(C)C)s1	i
Cc1cc(C)c(S(=O)(=O)N2CCN(C(=O)c3ccco3)CC2)c(C)c1	i
COc1ccc(C(=O)OCc2ccc(Oc3ccc([N+](=O)[O-])cc3)cc2)cc1	i

Continued, starting with the last 5 of the part before.
SMILES	Mtb H37Rv
COCc1nc2ccccc2n1CCC1CCCCC1	i
O=S(=O)(/N=C(/NS(=O)(=O)c1cccc2ccccc12)c1ccccc1)c1ccccc1	i
COCc1nnc(NC(=O)CC(C)C)s1	i
Cc1cc(C)c(S(=O)(=O)N2CCN(C(=O)c3ccco3)CC2)c(C)c1	i
COc1ccc(C(=O)OCc2ccc(Oc3ccc([N+](=O)[O-])cc3)cc2)cc1	i
CC(=O)Oc1c(C)cc(O)c2ccccc12	2.3%
COc1cc(C)ccc1S(=O)(=O)N1CCN(c2cc(Cl)ccc2Cl)CC1	7.5%
CC(C)CN1C(=O)c2ccc(C(=O)O)cc2C1=O	3.0%
COc1ccc(C(NC(=O)c2cccnc2)c2cc(Cl)c3cccnc3c2O)cc1OC (stereo unspecified)	i
Cc1cc(Br)c2[nH]c(O)c(N=NC(=O)COc3c(Cl)cc(Cl)cc3Cl)c2c1	24.3%
Cc1ccc(C)c(NC(=S)N2CCN(C)CC2)c1	i
CC(C)(C)C1CCc2c(sc(NC(=S)NC(=O)c3ccco3)c2C#N)C1 (stereo unspecified)	i
O=c1c2ccccc2ncn1-c1ccc2nsnc2c1	i
CC(C)(C)NCCOc1ccc2ccccc2c1Br	i
O=C(CN(Cc1ccccc1)S(=O)(=O)c1ccc(F)cc1)NCc1cccnc1	i
O=C(Nc1ccccc1Oc1ccccc1)c1cccc([N+](=O)[O-])c1	i
CC(C)c1cc(I)ccc1NC(=O)CSc1nnc(C(C)NC(=O)c2ccc(Cl)cc2)n1C (stereo unspecified)	1.8%
Cc1ccc(OCCN2C(=O)c3ccccc3C2=O)cc1	i
Cc1cc(Br)ccc1OCC(=O)Nc1ccccc1C(N)=O	i
CCCCC(=O)Nc1cccc(NC(=O)COc2ccc(C)cc2)c1	i
O=C(CCN1C(=O)c2ccccc2C1=O)Oc1ccc(Cl)cc1Cl	15.1%
COc1cc([N+](=O)[O-])ccc1NC(=O)COc1ccc(C)c(C)c1	i
Cc1cc(OCC(=O)Nc2ccccc2[N+](=O)[O-])cc(C)c1Br	i
O=C(COc1ccc(F)cc1)Nc1c(F)cccc1F	13.8%
CCc1c(C)sc(NC(=O)c2ccccc2)c1C(=O)N1CCCCC1	i
CC(SCc1ccccc1)C(=O)NC(C(C)C)C(C)C (stereo unspecified)	i
NS(=O)(=O)c1ccc2[nH]c3c(c2c1)CCCC3	i
Cc1ccc(OCCCOc2ccc(C)cc2)cc1	i
CC1CC(CC(C)C(=O)Nc2cc(Cl)ccc2Cl)C(=O)O1 (stereo unspecified)	i
CCc1ccc(NC(=O)CN(c2ccc([N+](=O)[O-])cc2)S(=O)(=O)c2ccccc2)cc1	i
c1ccc(N2CCN(c3ncnc4c3cnn4-c3ccccc3)CC2)cc1	13.1%
CC(=O)Nc1ccc(NC(=O)CC2Sc3ccc(C(F)(F)F)cc3NC2=O)cc1 (stereo unspecified)	i
CCC1=NN(C(=O)Cc2ccc(OC)cc2)C(O)(C(F)(F)F)C1 (stereo unspecified)	i
COc1ccc(C)cc1S(=O)(=O)Nc1ccc2c(c1)OCCO2	i
CCOC(=O)c1ccc(NC(=S)N2CCN(c3cccc(Cl)c3)CC2)cc1	0.4%
COCCCNC(=O)COc1cc(C)c(Br)c(C)c1	i
CS(=O)(=O)N(CC(=O)O)c1ccc(Oc2ccccc2)cc1	i
COc1ccc(C(=O)N2CCN(C(=O)COc3ccc(C)cc3)CC2)cc1OC	i
Cc1ccc(C(=O)NC2CCCCCC2)o1	1.7%
O=C(NC(=S)Nc1ccc(C(=O)O)c(Cl)c1)c1ccc(Br)cc1	i
Cc1ccc(NC(=O)COc2cccc(Cl)c2)cc1Cl	47.4%

Single values from the results shown:
Cc1ccc(-c2csc3ncnc(Nc4ccc(N5CCOCC5)cc4)c23)cc1 in Mtb H37Rv shows 7.3%
O=C(c1csc2c1CCCC2)N1CCc2ccccc2C1 in Mtb H37Rv shows 5.7%

The list goes on.
SMILES	Mtb H37Rv
N#Cc1cc2c(ccc3ccccc32)oc1=O	2.12µg/mL*
CC(C)(C)CC(C)(C)NC(=O)C1CCCO1 (stereo unspecified)	i
Cc1cccc(OCC(=O)Nc2ccc(NC(=O)c3cccs3)cc2)c1	i
O=C(Nc1nc2ccccc2[nH]1)c1cccc(Cl)c1	10.4µg/mL*
CC(C)c1ccccc1OCC(=O)Oc1ccc(OCc2ccccc2)cc1	45.2%
COc1cc(NC2=NS(=O)(=O)c3ccccc32)c(OC)cc1Cl	i
Cc1ccc(-c2nc3ccccc3[nH]2)cc1NC(=S)NC(=O)c1ccc2c(c1)OCCO2	i
CC(=O)Nc1ccc(C(=O)NCC2CCCO2)cc1 (stereo unspecified)	i
COc1ccccc1NC(=O)Cn1cnc2sc(-c3ccccc3)cc2c1=O	i
COc1cc2c3c(c1)C(C)CC(C)(C)N3C(=O)C2=O (stereo unspecified)	2.0%
Cc1c(C(=O)Nc2ccccc2)sc2ncn(Cc3ccccc3Cl)c(=O)c12	4.3%
CCOC(=O)c1c(NC(=S)NCCc2ccccc2)sc2c1CC(C(C)C)OC2 (stereo unspecified)	11.2%
CCN1CCN(CC(O)COc2ccc(Cl)cc2)CC1 (stereo unspecified)	0.7%
S=C(Nc1ccc(Nc2ccccc2)cc1)NC1CCCCC1	i
COc1ccc(C(=O)c2ccc(N3CCN(C)CC3)c([N+](=O)[O-])c2)c2ccccc12	5.57µg/mL*
COc1cc(C2C3=C(CCCC3=O)N(C)C3=C2C(=O)CCC3)cc(Cl)c1O	i
CCOc1cc(C(NC(C)=O)c2cc([N+](=O)[O-])c3cccnc3c2O)ccc1O (stereo unspecified)	i
COc1cc(C2C3=C(CCCC3=O)N(c3cccc(C(F)(F)F)c3)C3=C2C(=O)CCC3)ccc1O	i
CCc1ccc(N2CC(=O)N(c3ccc(CC)cc3)CC2=O)cc1	i
O=C(CN1C(=O)c2ccccc2S1(=O)=O)Nc1ccc(OCc2ccccc2)cc1	i
Cc1ccccc1C1CC(c2ccc(Cl)cc2)Nc2nc(N)nn21 (stereo unspecified)	0.3%
Cc1cccc(C(=O)N2CCN(c3ccc([N+](=O)[O-])c(N4CCCCC4)c3)CC2)c1	2.9%
O=C(Nc1ccc(Cl)c(C(F)(F)F)c1)C1CCN(C(=O)c2ccccc2Cl)CC1	i
COc1ccc(-n2nc3cc(C)c(NC(=S)NC(=O)CSc4ccc(Cl)cc4)cc3n2)cc1	0.8%

Another view of some results above.
structure | Mtb H37Rv
COc1cc(C2C3=C(CCCC3=O)N(c3cccc(C(F)(F)F)c3)C3=C2C(=O)CCC3)ccc1O | i
CCc1ccc(N2CC(=O)N(c3ccc(CC)cc3)CC2=O)cc1 | i
O=C(CN1C(=O)c2ccccc2S1(=O)=O)Nc1ccc(OCc2ccccc2)cc1 | i
Cc1ccccc1C1CC(c2ccc(Cl)cc2)Nc2nc(N)nn21 (stereo unspecified) | 0.3%
Cc1cccc(C(=O)N2CCN(c3ccc([N+](=O)[O-])c(N4CCCCC4)c3)CC2)c1 | 2.9%
O=C(Nc1ccc(Cl)c(C(F)(F)F)c1)C1CCN(C(=O)c2ccccc2Cl)CC1 | i

Next section
SMILES	Mtb H37Rv
CSc1ccc(-c2nnn(Cc3ccc(Br)cc3)n2)cc1	i
CC(C)(C)c1cc(NC(=O)CSc2n[nH]c(N)n2)cc(C(C)(C)C)c1	i
COc1ccc(NC(=O)Cn2cnc3sc4c(c3c2=O)CCC(C)C4)c(OC)c1 (stereo unspecified)	i
O=C(c1cnn2c(C(F)F)cc(-c3ccccc3)nc12)N1CCN(c2ccccn2)CC1	2.9%
Cc1cc(=O)oc2cc(OCC(=O)Nc3ccccc3)ccc12	i
Cn1c(=O)c2c(nc(SCC(=O)NC3CCCC3)n2Cc2ccccc2Cl)n(C)c1=O	i
c1ccc(CN2CCN(CCOCCOc3ccccc3)CC2)cc1	i
COc1ccc(COc2cc3oc(=O)c(C)c(C)c3cc2Cl)cc1	i
O=S(=O)(NC(=S)NC1CCCCC1)c1ccc(Br)cc1	0.3%
O=c1c2ccccc2nc(-c2ccc(Cl)cc2Cl)n1CCCOc1ccccc1[N+](=O)[O-]	0.2%
COCCCNC(=S)NNC(=S)Nc1ccc(F)cc1F	i
CN1CCN(c2ccc(NC(=O)c3cccc(OCc4ccccc4)c3)cc2)CC1	21.4µg/mL*
O=C(O)c1ccc(NC(=O)c2ccc(Cl)cc2)c(NC(=O)c2ccc(Cl)cc2)c1	i
